Assay outcomes deposited in PubChem by National Center for Advancing Translational Sciences (NCATS).
Tau fluor counter – counter-screen for tau fibril formation inhibitors; Potency, µM (top dose mostly 57.7 µM), without a hit: at the highest dose activity change, negative = decrease; tau K18 P301L Alexa594 fluorescence, heparin fibrillization; 280,000 compounds, 0.93% hits; AID 1463; note: % is set by controls: 0 for no effect and ±100 for the full control effect; nearly all actives have a fitted effect of over 55% in size
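Human K18 P301L tau (15 uM unlabeled plus 0.24 uM Alexa 594-labeled, final) in 100 mM sodium acetate pH 7 was mixed with compound and 20 uM heparin and incubated 6 hr at 37 C.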
SMN2 splice enh – increases expression of the SMN2 splice variant | 210,000 compounds, 2.8% hits | Potency, µM (highest dose often 46.1 µM), without a hit: at the highest dose activity change, positive = activation, most hits filed as activators | HEK293 SMN2-luciferase splicing reporter, luminescence, 30-36 h | AID 1458; note: % of control where 0% means no effect; nearly all actives have a fitted effect of over 55% in size
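HEK293 cells carry an SMN2 minigene-luciferase reporter in which exon 7 inclusion puts luciferase in frame. Cells were seeded at 2000 cells/well, attached for 10-12 hours, then exposed to compounds for 30-36 hours at 37C before ONE-Glo luminescence.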
Tau fibril FP – blocks human tau fibril formation measured by polarization; P10636; K18 P301L tau heparin fibrillization, Alexa594 FP, 6 h; Potency, µM (top dose mostly 57.7 µM), for inactives: at the top dose activity, negative = inhibition, hits mostly inhibitors; 280,000 compounds, 0.39% hits; note: % is set by controls: 0 for no effect and ±100 for the full control effect; nearly all actives have a fitted effect of over 55% in size
Target sequence (P10636 561-689 P618L limits assumed): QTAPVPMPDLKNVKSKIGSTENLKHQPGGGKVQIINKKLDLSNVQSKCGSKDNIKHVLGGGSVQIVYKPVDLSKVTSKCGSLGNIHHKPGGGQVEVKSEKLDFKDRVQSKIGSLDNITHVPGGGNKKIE
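Human tau K18 […] P301L fragment, 15 uM unlabeled plus 0.24 uM Alexa 594-labeled tau (final), with compound and 20 uM heparin in 100 mM sodium acetate pH 7; 6 hr at 37 C, then Alexa 594 FP read.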
Tau ThT inhib – blocks human tau fibril formation measured by thioflavin T; AID 1460; Potency, µM (highest dose often 57.4 µM), for inactives: top-dose activity, negative = inhibition, actives largely listed as inhibitors; P10636; recombinant tau K18 P301L, heparin-induced fibrillization, ThT fluorescence; 270,000 compounds, 2.1% hits; note: % is set by controls: 0 for no effect and ±100 for the full control effect; nearly all actives have a fitted effect of over 55% in size
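ThT emission at 510 nm, taken 1 hr after adding 30 uM dye, quantifies aggregates formed when 20 uM heparin acts on human tau K18 P301L for 6 hr at 37 C.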
The depositor's hits bear a star; ? = inconclusive; / = not tested or not shown; & = joins results of further samples; [ ] = another dose, or the depositor's remark. Calls come from the whole dose curve; as a rule, active = well fitted curve in the direction sought with a large enough effect; inconclusive = small, poorly fitted or top-dose-only effect, or another doubt; inactive = no such curve, though single readings can be large; an effect the other way counts as inactive or inconclusive. Potency is the fitted concentration of half-maximal effect. Some of the compounds tested, so the mix of outcomes need not match the whole.

#	SMILES	Tau fluor counter	SMN2 splice enh
1	C#C[C@]1(O)CC[C@H]2[C@@H]3CCC4=C(CCC(=O)C4)[C@H]3CC[C@@]21C	-13%	-45%[inhibitor]
2	CC1CC2C3CCC4=CC(=O)C=CC4(C)C3(F)C(O)CC2(C)C1(O)C(=O)CO (stereo unspecified)	-1%	/
3	Nc1c(Br)cc(Br)cc1CNC1CCC(O)CC1 (stereo unspecified)	-1%&-12%&0%	-11%
4	Cc1ccc2nc3c(nc2c1)-c1ccccc1C3=O	-12%	?
5	C[C@H]1[C@@H](O)[C@@H](C)\C=C/C=C\C=C/C=C\C=C/C=C\C=C/[C@@H](O[C@H]2O[C@@H](C)[C@@H](O)[C@@H](N)[C@@H]2O)C[C@@H]2O[C@](O)(C[C@@H](O)C[C@@H](O)[C@@H](O)CC[C@@H](O)C[C@@H](O)CC(=O)O[C@H]1C)C[C@@H](O)[C@H]2C(=O)O (stereo in doubt)	/	1%[20.6 µM]
6	CN=C(NC#N)NCCSCc1csc(N=C(N)N)n1	-3%&-19%	-3%
7	O=C(CSc1ncn[nH]1)c1ccc(OC(F)F)cc1	-7%	17%

#	Tau fibril FP	Tau ThT inhib
1	-4%	?
2	0%	/
3	4%&0%&-1%	0%&-9%&6%
4	8%	?
5	/	/
6	-3%&-15%	?
7	3%	-18%

Record cards (already shown). Order of screens: Tau fluor counter | SMN2 splice enh | Tau fibril FP | Tau ThT inhib
Nc1c(Br)cc(Br)cc1CNC1CCC(O)CC1 (stereo unspecified) is listed with -1%&-12%&0% | -11% | 4%&0%&-1% | 0%&-9%&6%
C[C@H]1[C@@H](O)[C@@H](C)\C=C/C=C\C=C/C=C\C=C/C=C\C=C/[C@@H](O[C@H]2O[C@@H](C)[C@@H](O)[C@@H](N)[C@@H]2O)C[C@@H]2O[C@](O)(C[C@@H](O)C[C@@H](O)[C@@H](O)CC[C@@H](O)C[C@@H](O)CC(=O)O[C@H]1C)C[C@@H](O)[C@H]2C(=O)O (stereo in doubt) is listed with / | 1%[20.6 µM] | / | /
CC1CC2C3CCC4=CC(=O)C=CC4(C)C3(F)C(O)CC2(C)C1(O)C(=O)CO (stereo unspecified) is listed with -1% | / | 0% | /

Of the compounds above, three have nitrogen in an aromatic ring.
#	SMILES	Tau fluor counter	SMN2 splice enh
4	Cc1ccc2nc3c(nc2c1)-c1ccccc1C3=O	-12%	?
6	CN=C(NC#N)NCCSCc1csc(N=C(N)N)n1	-3%&-19%	-3%
7	O=C(CSc1ncn[nH]1)c1ccc(OC(F)F)cc1	-7%	17%

#	Tau fibril FP	Tau ThT inhib
4	8%	?
6	-3%&-15%	?
7	3%	-18%
